Compound activity as filed in PubChem.
Calb biofilm kill = mixtures killing C. albicans biofilm. AID 1242. inhibition, % at 7.6 µM. C. albicans biofilm persisters + clotrimazole, fluorescence viability; primary screen in compound mixtures of four per well. actives 0.02% (n = 120,000);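 active = inhibition above 30.3% in the primary screen of four-compound pools, then above 30% when the compound was retested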;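 also: compounds exposed to preformed 24 h biofilms for 48 h; the number belongs to the whole pool; some results filed as inactive read as strong as hits; inactives centre near 12; 0% = biofilm with clotrimazole alone and 100% = kill control; retested singly at about 60 µM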
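Incubation: 24 h biofilm formation, then 48 h compound exposure, 37 °C | Material: C. albicans biofilms | Buffer or medium: RPMI/MOPS medium, pH 7.0 | Measured by: 2-h Alamar Blue fluorescence, 535/590 nm excitation/emission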
Starred values were filed as active, the others as inactive. Some of the compounds tested; the hit share may differ from the screen's.

molecule	Calb biofilm kill
COC(=O)c1sc(N2C(=O)c3oc4ccccc4c(=O)c3C2c2cccc(O)c2)nc1C (stereo unspecified)	5
Cc1occc1-c1nnc(SCC(=O)Nc2ccccc2)n1C	30
C=CCN1C(=O)/C(=C/c2ccc(O)c(OC)c2)S/C1=N/c1nccs1	8
CN(C(=O)COC(=O)c1ccc([N+](=O)[O-])cc1N)c1ccccc1	8
Cc1cc(-n2cc(Br)c(=O)[nH]c2=O)nc(-c2ccccc2)n1	18
COc1ccc(CN(C)CC(=O)NC2CCCc3ccccc32)cc1OC (stereo unspecified)	10
COC(=O)[C@H](C)NC(=O)/C=C/c1ccc(OC)cc1	19
O=C1OCCN1/N=C/c1ccc([N+](=O)[O-])o1	-2
O=C(c1cc([N+](=O)[O-])ccc1N1CCCC1)N1CCCCC1	27
Cc1cc([N+](=O)[O-])nn1Cc1ccc(C(=O)N/N=C/c2ccc(O)cc2O)cc1	8
O=C(O)CCNc1nc(C(F)(F)F)nc2ccccc12	12
O=C(Nc1ccc(Cl)cc1)Nc1cccc2nsnc12	18
CCCCCCCn1ccc(O)c(CC(=O)OC)c1=O	6
COc1ccc(N2CCN(C(CNC(=O)C(=O)NCc3cccs3)c3ccco3)CC2)cc1 (stereo unspecified)	3
O=S(=O)(Nc1nc2ccccc2nc1N1CCN(c2ccccc2)CC1)c1ccc(F)cc1	12
O=C(/C=C/c1ccc2c(c1)OCO2)c1ccccn1	7
c1cc2nnnn2nc1N1CCCCCC1	13
O=C(CSC1=NCCS1)NC(NC(=O)CSC1=NCCS1)c1ccccc1	9
CCOc1ccc(NC(=S)NNC(=O)c2ccc(Br)cc2)cc1	8
O=C(c1cccs1)N(Cc1cc2ccccc2[nH]c1=O)c1ccccc1	1
CS(=O)(=O)Nc1ccc(C2=NN(S(C)(=O)=O)C(c3cccs3)C2)cc1 (stereo unspecified)	13
COc1ccc(N(CC(=O)Nc2c(C)cccc2C)S(=O)(=O)c2ccccc2[N+](=O)[O-])c(OC)c1	3
N#Cc1ccc(C(=O)N/N=C/c2cn(CC(=O)O)c3ccccc23)c(F)c1	-9
Cc1ccccc1C(=O)NC1CCN(CC(=O)NCc2ccc(F)cc2)CC1	19
COC(=O)c1ccccc1C(=O)N1CCCC(CCC(=O)NCc2ccc(F)c(F)c2)C1 (stereo unspecified)	17
CCN(CC(=O)Nc1ccc2c(c1)OCCO2)Cc1cc(=O)n2ccsc2n1	26
CCN(CC)C1CCN(C(=O)CCc2nnc(CCCCc3ccccc3)o2)C1 (stereo unspecified)	16
Cc1ccnc(NC(=O)c2ccc(Cl)c([N+](=O)[O-])c2)c1	9
Cc1ccc(/C=N/NC(=O)CSc2nc3ccccc3c(=O)n2-c2ccccc2C)s1	25
COc1ccc(NC(=O)CSc2nnnn2C)cc1	24
CCCOC(=O)c1ccc(NC(=O)c2cc(=O)[nH]c3ccccc23)cc1	15
O=C(O)Cc1cn(Cc2cccc(Cl)c2)c2ccccc12	9
Cc1nnc(-c2cnn(C)c2N)n1Cc1ccc2c(c1)OCO2	5
COCCNC(=O)C12CC3CC(C1)CC(c1ccccc1)(C3)C2	20
Cc1cc(S(=O)(=O)NC2CCCCC2)ccc1OCC(=O)NCC1CCCO1 (stereo unspecified)	10
S=c1[nH]nc([C@@H]2C[C@H]2c2ccccc2)n1-c1ccccc1	18
CC/C(=N\NC(=S)Nc1ccc(OC)cc1)c1ccc(OC(F)F)cc1	20
O=C(Nc1cccc(S(=O)(=O)N2CCCCC2)c1)c1ccc2c(c1)OCO2	6
CCOc1ccc(NC(=S)NN2C(C)CCCC2C)cc1 (stereo unspecified)	12
CCCCN(C)C1=CC2=CC(=C(C#N)C#N)CCC2CC1 (stereo unspecified)	25
O=C(Nc1ccc2oc(=O)ccc2c1)c1ccc(-c2ccc(Cl)cc2)o1	-6
CCCOC(=O)/C(=C\c1ccc([N+](=O)[O-])o1)NC(=O)c1ccccc1	17
O=C1NCCCC1C(=O)N/N=C/c1ccc(Cl)cc1 (stereo unspecified)	10
Cc1cc(C)c(S(=O)(=O)/N=C2/C=C(SCC(=O)O)C(=O)c3ccccc32)cc1C	19
CC(C)(C)NC(=S)NCCc1ccccc1	6
CN(C(=O)/C=C/c1ccc2c(c1)OCO2)c1ccccc1	18
Cc1cc(C)nc(NC(=NCCc2c[nH]c3ccccc23)NC(=O)C(C)(C)C)n1	35
CCOC(=O)c1sc(NC(=O)Cn2nnc3sc4c(c3c2=O)CCC(C(C)(C)C)C4)nc1C (stereo unspecified)	9
COc1ccc(S(=O)(=O)N2CCOCC2)cc1NC(=O)CN1CCCCCC1	5
O=C(O)CCCC(=O)Nc1cccc(C(=O)Nc2ccccc2C(=O)O)c1	7
O=C1/C(=C\c2ccc(O)c(O)c2)N=C2CCCCCN12	-3
CCOC(=O)n1c(=O)n(C)c2ccc(Br)cc21	2
Cc1ccc(N)c2c1OCCC2=O	3
CCN(CC)CC(O)COc1ccc2c(c1)c(C(C)=O)c(C)n2-c1ccccc1 (stereo unspecified)	15
CC(C)(C)OC(=O)NCC(=O)Oc1cc2oc(=O)cc(-c3ccccc3)c2cc1Cl	18
COc1cc(NCCCCCCCN)c2ncccc2c1	21
O=C(O)CCC(=O)NNC(=O)COc1ccc(Cl)cc1Cl	7
O=C(CNC(=O)c1ccc(-c2ccccc2)cc1)OCc1c(Cl)cccc1Cl	7
COc1cccc(-n2c(SCC(=O)Nc3nc4ccccc4s3)nc3ccccc3c2=O)c1	16
OCC1(CCOc2ccccc2)CCN(Cc2cccn2-c2ncccn2)CC1	9

Among those listed so far, five have a thiophene ring, fused or not:
molecule	Calb biofilm kill
COc1ccc(N2CCN(C(CNC(=O)C(=O)NCc3cccs3)c3ccco3)CC2)cc1 (stereo unspecified)	3
O=C(c1cccs1)N(Cc1cc2ccccc2[nH]c1=O)c1ccccc1	1
CS(=O)(=O)Nc1ccc(C2=NN(S(C)(=O)=O)C(c3cccs3)C2)cc1 (stereo unspecified)	13
Cc1ccc(/C=N/NC(=O)CSc2nc3ccccc3c(=O)n2-c2ccccc2C)s1	25
CCOC(=O)c1sc(NC(=O)Cn2nnc3sc4c(c3c2=O)CCC(C(C)(C)C)C4)nc1C (stereo unspecified)	9

More results follow.
canonical_smiles | Calb biofilm kill
C/C(=N\NC(=O)c1ccc(NS(=O)(=O)c2cccs2)cc1)c1ccc(O)cc1O | 14
Cc1ccc(/C=C(\C#N)C(=O)Nc2ccccn2)o1 | -18
O=C(NCCN1CCOCC1)c1cc(Sc2ccc(F)cc2F)nc2ccccc12 | 19
COc1cccc(/C=C/C(=O)Nc2ccc3[nH]c(=O)[nH]c3c2)c1 | -3
CC(NC(=O)CN(C)Cc1cccs1)c1ccccc1 (stereo unspecified) | 7
O=C(COC(=O)c1cccs1)Nc1cccc(S(=O)(=O)N2CCOCC2)c1 | 15
CN1CCN(C(=S)Nc2cccc(C(F)(F)F)c2)CC1 | 18
Cc1nc2sccn2c(=O)c1CCN1CCC(=C(c2ccccc2)c2ccc(F)cc2)CC1 | 15
O=C(O)c1cc2n(n1)C(C(F)(F)F)CC(C1CC1)N2 (stereo unspecified) | 17
COC(=O)c1ccc[n+](CC(=O)Nc2ccc(OC(F)F)cc2)c1 | 16
CC(=O)Nc1ccc(-n2c(=O)c3ccccc3c3ccccc3c2=O)cc1 | 19
CC1CCN(c2c(NCC3CCC(C(=O)NCCCc4ccccc4)CC3)c(=O)c2=O)CC1 (stereo unspecified) | 16
O=C(COC(=O)c1cccs1)Nc1ccc(S(=O)(=O)N2CCOCC2)cc1 | 15
Cc1cc(C)cc(OCC(=O)O/N=C(\N)Cc2ccc([N+](=O)[O-])cc2)c1 | 7
CCCC[n+]1ccn(C2=C([O-])c3ccccc3C(=O)/C2=N\S(=O)(=O)c2ccc(Cl)cc2)c1 | 0
O=C(O)/C=C/C(=O)Nc1cccc(C(F)(F)F)c1 | 14
Cc1nn(-c2ccccc2)c(C)c1NC(=O)COc1ccc(F)cc1Cl | 8
CCOc1ncccc1C(=O)OCC(=O)Nc1ccc(S(=O)(=O)N2CCOCC2)cc1 | 15
COCCNC(=O)CCCn1c(=O)c2cc(OC)c(OC)cc2n(CC(=O)c2ccccc2)c1=O | 12
Cc1ccc(NC(=O)C2Cc3ccccc3C(=O)O2)cc1 (stereo unspecified) | 24
O=C(O)c1ccc(N/N=C/c2ccc(F)c(F)c2)cc1 | 8
COc1cccc(-n2cc(CNCc3cn(C)nc3-c3ccccc3F)cn2)c1 | 11
CNC(=S)N(Cc1ccc(OC)cc1)Cc1cc2ccc(C)cc2[nH]c1=O | 3
O=C(Nc1nccs1)c1cc(Cl)nc2ccccc12 | 6
COc1cc(/C=C(\C#N)C(=O)Nc2cc(C(F)(F)F)ccc2Cl)ccc1OCC(=O)Nc1cccc(C(F)(F)F)c1 | 7
COc1ccc2[nH]c3c(=O)n(Cc4ccc(C(=O)N5CCCCCC5)cc4)c(=S)[nH]c3c2c1 | 8
CC(C)CN1C(=O)/C(=C/c2c(N3CCc4ccccc4C3)nc3ccccn3c2=O)SC1=S | 3
CN(C)c1ccc(/C=C2\SC(=O)N(CC(O)Cn3c4ccccc4c4ccccc43)C2=O)cc1 (stereo unspecified) | 7
CCN(CC)Cc1cc(C(=O)O)c(C)o1 | 22
Cc1ccc(OCCn2cc(C(=O)O)c3ccccc32)cc1 | -2
CC(C)Cn1nc(NC(=O)c2cccs2)c2cc3ccccc3nc21 | 16
OCCN(Cc1ccccc1)Cc1nc(CC2CC2)no1 | 10
CC12CCC(C(=Nc3ccc(N=C4C(=O)C5(C)CCC4C5(C)C)cc3)C1=O)C2(C)C | 6
CCO[C@H]1OC(C(N)=O)=C[C@@H](C)[C@@H]1CCCO | 21
O=C(CCc1nnc(Cc2cccc(C(F)(F)F)c2)o1)NCC(F)(F)F | -4
CC(C)(Oc1ccc(Cl)cc1)C(=O)NCc1ccc(S(N)(=O)=O)cc1 | 12
CC(=O)c1sc(NC(=O)c2ccccc2C)nc1C | 12
NC(=O)C1=C[C@@H](c2ccc(Br)cc2)C[C@@H](OCc2ccc(CO)cc2)O1 | 16
COCCCNC(=S)NNC(=O)c1ccccc1Br | 7
COc1ccc(C(O)P(=O)(OCCC(C)C)c2ccc(N(C)C)cc2)cc1OC (stereo unspecified) | 8
Cc1cccc(OCC(=O)Nc2ccc(C(=O)NCC(C)C)cc2)c1 | 15
O=C(NC1CCN(CC(=O)N(c2ccccc2)c2ccccc2)CC1)c1ccc([N+](=O)[O-])cc1 | 25
OCC1(CC2CCCCO2)CCN(C/C=C/c2ccccc2)CC1 (stereo unspecified) | 14
CC(C)C(=O)Nc1nc(-c2ccc([N+](=O)[O-])cc2)cs1 | 7
C=CCn1c(-c2sc3nc(C)cc(C)c3c2N)n[nH]c1=S | 1
Cc1cccc(N2CN(Cc3cccnc3)CNC2=S)c1C | 15
Cc1ccc(NC(=O)c2ccccc2[N+](=O)[O-])nc1 | 13
Cc1ccc(NC(=O)CSc2nnc(CNC(=O)C34CC5CC(CC(C5)C3)C4)n2-c2ccc(F)cc2)cc1 | 11

A second format for part of the listing above:
canonical_smiles: COCCCNC(=S)NNC(=O)c1ccccc1Br
- Calb biofilm kill = 7

canonical_smiles: COc1ccc(C(O)P(=O)(OCCC(C)C)c2ccc(N(C)C)cc2)cc1OC (stereo unspecified)
- Calb biofilm kill = 8

canonical_smiles: Cc1cccc(OCC(=O)Nc2ccc(C(=O)NCC(C)C)cc2)c1
- Calb biofilm kill = 15

canonical_smiles: O=C(NC1CCN(CC(=O)N(c2ccccc2)c2ccccc2)CC1)c1ccc([N+](=O)[O-])cc1
- Calb biofilm kill = 25

Additional records.
canonical_smiles | Calb biofilm kill
CC(=O)c1cnc2ncnn2c1C | 16
COP(=O)(OC)C(Nc1ccc([N+](=O)[O-])cc1)c1ccccc1 (stereo unspecified) | 18
Cc1ccc(Cn2nc3c(cc2=O)CCc2ccccc2-3)cc1 | 6
COc1ccc(/C=C/C(=O)c2cc(F)ccc2OC(=O)c2ccc(OC)c(OC)c2)cc1OC | 19
Cc1nc2ccccc2c2oc(C(=O)N3CCc4ccccc43)cc12 | 14
Cn1c(N)c(C(=O)CSc2nnc(-c3ccccc3F)n2C2CC2)c(=O)n(C)c1=O | 10
O=C(CNC(=O)c1ccccc1)OCc1cc(=O)n2cc(Br)ccc2n1 | -1
O=C(CCSc1ccccc1)NCc1cccnc1 | 9
CCN(CC)CCCNC(=O)C1CCN(c2ncnc3c2sc2cccc(F)c23)CC1 | 9
O=C(COc1ccccc1Br)Nc1ccccc1C(F)(F)F | 16
COc1ccc(/C=C(/NC(=O)c2ccc([N+](=O)[O-])cc2)C(=O)NCCCN(C)C)cc1 | -1
c1cncc(Cc2cc3ccccc3[nH]2)c1 | 4
NNC(=O)CCCCCCCCCCOCCCCO | 11
O=C(NCCCN1CCOCC1)c1sc2cc(F)ccc2c1Cl | 10
CN(Cc1ccc(F)cc1)C(=O)COc1ccccc1-c1ccccc1 | 0
Cc1ccc(C(C)C)c(OCc2nn(CC(=O)c3ccc(Cl)cc3)c3[n+]2CCCCC3)c1 | 10
CC(C)NC(=S)NC1(C)CCS(=O)(=O)C1 (stereo unspecified) | -1

Six entries drawn at random from the list so far:
canonical_smiles | Calb biofilm kill
Cc1cc(C)cc(OCC(=O)O/N=C(\N)Cc2ccc([N+](=O)[O-])cc2)c1 | 7
NNC(=O)CCCCCCCCCCOCCCCO | 11
COc1ccc(C(O)P(=O)(OCCC(C)C)c2ccc(N(C)C)cc2)cc1OC (stereo unspecified) | 8
S=c1[nH]nc([C@@H]2C[C@H]2c2ccccc2)n1-c1ccccc1 | 18
COc1ccc(/C=C/C(=O)c2cc(F)ccc2OC(=O)c2ccc(OC)c(OC)c2)cc1OC | 19
c1cc2nnnn2nc1N1CCCCCC1 | 13
